From PubChem BioAssay
PKD1 kinase inh = inhibitors of human PKD1 kinase, biochemical, fluorescence polarization | Serine/threonine-protein kinase D1 (Homo sapiens), Q15139 | PKD1 kinase fluorescence polarization assay | inhibition, %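 (about 10 µM by stock and volumes)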 | 200,000 tested, 0.056% active;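 active = inhibition of 50% or more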;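 also: controls were vehicle for no effect and a reference inhibitor for full effect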
GALR2 ag = GALR2 receptor agonists, primary screen, cell-based; Galanin receptor type 2 (Homo sapiens), O43603; GALR2-expressing cells, agonist activation read-out; activation, %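 (tested at 5 µM)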; 140,000 tested, 0.48% active;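 active = above mean plus 3 SD of all compounds, about 5% in these data, not always enough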;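 also: 0% = vehicle buffer wells and 100% = reference agonist at full effect; tested in CHO reporter cells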
Target sequence (O43603 whole entry, looked up): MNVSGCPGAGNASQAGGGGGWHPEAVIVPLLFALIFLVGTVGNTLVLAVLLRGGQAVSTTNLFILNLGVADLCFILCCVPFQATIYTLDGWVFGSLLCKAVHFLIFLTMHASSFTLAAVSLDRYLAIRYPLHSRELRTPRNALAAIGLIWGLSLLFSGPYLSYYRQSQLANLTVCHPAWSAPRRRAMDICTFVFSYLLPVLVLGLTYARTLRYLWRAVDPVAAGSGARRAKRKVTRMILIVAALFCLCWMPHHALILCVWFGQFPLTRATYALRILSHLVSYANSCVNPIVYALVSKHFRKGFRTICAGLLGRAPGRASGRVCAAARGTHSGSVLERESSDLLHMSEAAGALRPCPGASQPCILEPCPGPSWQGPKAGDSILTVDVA
HSV augment = enhancers of HSV replication in host cells, fold increase, host cell viability | HSV replication augmentation in cells | maximum fold increase | 220,000 tested, 0.005% active | AID 1956, 2009;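 active = peak rise of 1.5-fold or more in the series; tested in PC3 cells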;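 also: first round at 10 µM; read as green reporter fluorescence; hits show the peak of a series up to 25 µM; 1 = signal of infected wells without compound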
INS promoter inh = inhibitors of insulin promoter-driven GFP, primary screen, imaging, TRM-6 cells (human fetal islet line), eGFP reporter, cell count; reporter expression induced with tamoxifen; inhibition, % at 2 µM; 130,000 tested, 0.9% active; AID 1273, 2008;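 active = inhibition above the mean plus 3 SD, with well images judged a real hit on visual review, cut at about 60% in these data, passing the limit was not always enough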
RGS16-Gao = modulators of RGS16 binding to Galphao, primary screen, biochemical, human proteins, multiplexed bead flow cytometry; Regulator of G-protein signaling 16 (Homo sapiens) + Guanine nucleotide-binding protein …; bead-based flow cytometry RGS16-Galphao binding, fluorescence; actives lie on both sides; binding response (% of control), % at 10 µM; 220,000 tested, 0.38% active; AID 1441, 2008;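 active = below 25% or above 175%, edge rows of some plates excepted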;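 also: Galphao activated by GDP with aluminum fluoride before binding; 100% = wells without compound and 0% = beads without RGS; some results beyond the cut were filed as inactive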
Target sequence (O15492 whole entry, looked up): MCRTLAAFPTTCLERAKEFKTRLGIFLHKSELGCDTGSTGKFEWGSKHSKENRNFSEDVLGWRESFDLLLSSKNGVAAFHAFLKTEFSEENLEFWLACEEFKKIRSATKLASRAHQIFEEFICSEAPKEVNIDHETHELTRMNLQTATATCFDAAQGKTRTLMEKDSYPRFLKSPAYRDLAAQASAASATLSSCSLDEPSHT
Target sequence (P09471 whole entry, looked up): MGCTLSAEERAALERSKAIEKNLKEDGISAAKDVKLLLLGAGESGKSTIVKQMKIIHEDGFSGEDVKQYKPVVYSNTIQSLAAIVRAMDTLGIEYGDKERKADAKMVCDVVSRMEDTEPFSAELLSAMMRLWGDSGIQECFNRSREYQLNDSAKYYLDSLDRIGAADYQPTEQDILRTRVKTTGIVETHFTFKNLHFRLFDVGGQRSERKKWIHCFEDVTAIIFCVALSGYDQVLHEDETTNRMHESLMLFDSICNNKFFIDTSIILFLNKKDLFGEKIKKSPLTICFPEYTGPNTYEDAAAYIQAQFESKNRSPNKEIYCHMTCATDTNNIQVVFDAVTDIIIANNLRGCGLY
INS promoter inh cell count = further read-out of INS promoter inh, marked with its call; normalized cell count, %; measured here: cell count, toxicity; reference of the scale not given here;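 cells exposed to compound for 48 h; stained nuclei by imaging scaled within each plate; lower means fewer cells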
HSV augment primary fold = recorded beside HSV augment, whose call it bears; fold increase; compound at 10 µM; measured here: primary screen fold increase 10 uM; tested in PC3 cells;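 GFP signal in the first replicate; 1 = infected wells without compound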
Starred values were filed as active, the others as inactive; i = inactive; . = no result given.

Order of results – PKD1 kinase inh, GALR2 ag, HSV augment, HSV augment primary fold, INS promoter inh, INS promoter inh cell count, RGS16-Gao
CN1C(=O)CC(N2CCN(CC(N)=O)CC2)C1=O (stereo unspecified)
    1, -3.6, i, 0.99, 27, 109, 98
O=C(/C=C/c1c(F)cccc1Cl)c1ccc(F)cc1
    -10, -1.5, i, 0.89, ., ., 98
S=C(NCc1ccco1)Nc1ccc(Br)cc1Cl
    -8, ., i, 0.9, ., ., 100
O=C(NCCc1cccc(F)c1)/C(=C/c1cccnc1)NC(=O)c1ccccc1
    -16, -0.5, i, 0.96, -13, 108, 103
O=C(COC(=O)CSc1nnc(-c2ccc(Cl)cc2)o1)Nc1cc(Cl)ccc1Cl
    ., ., i, 0.96, ., ., 105
COc1cc(/C=N/Nc2ncc(C(F)(F)F)cc2Cl)cc(OC)c1O
    -7, 0.1, i, 1, 31, 117, 101
Cc1c(NCc2nc3ccccc3[nH]2)c(=O)n(-c2ccccc2)n1C
    4, 0.2, i, 0.89, 36, 73, 107
Cc1ccc(Cl)c(OCC(=O)OCC(=O)NC2CCCc3ccccc32)c1 (stereo unspecified)
    -1, -0.7, i, 1.1, ., ., 97
COc1cc(CNCCc2c[nH]c3ccccc23)ccc1OCc1ccc(F)cc1
    -11, -0.4, i, 1, -79, 86, 108
CCOc1ccc(N2C(=O)c3cccnc3C2Nc2ccc(C)c(C)c2)cc1 (stereo unspecified)
    -1, -2.6, i, 0.95, 39, 109, 103
Cc1cccc(-n2c(C)cc(C(=S)N3CCOCC3)c2C)c1C
    -8, ., i, 1, 26, 106, 97
CC(OC(=O)Cc1c(F)cccc1Cl)C(=O)NCCC1=CCCCC1 (stereo unspecified)
    -4, -0.5, i, 1.1, -54, 136, 110
COC(=O)c1ccc(S(=O)(=O)N2Cc3ccccc3C2)cc1
    3, ., i, 0.99, -39, 66, 102
CN(C)/N=C1\CCS(=O)(=O)c2sccc21
    -6, ., i, 0.99, ., ., 99
N#CCC(=O)N/N=C/c1cc([N+](=O)[O-])ccc1N1CCOCC1
    7, ., i, 0.92, -42, 159, 117
C/C=C/c1ccc(OCCCCN2CC(C)CC(C)C2)c(OC)c1 (stereo unspecified)
    -1, ., i, 0.95, ., ., 101
CCOc1ccc(-c2nc(N)ncc2Oc2ccccc2Br)c(O)c1
    1, -1.3, i, 0.92, -28, 121, 98
N#CC(C#N)=C1c2cc(S(N)(=O)=O)ccc2-c2ccc(S(N)(=O)=O)cc21
    -9, ., i, 0.92, ., ., 99
CN(Cc1cccs1)C(=O)c1ccc(S(=O)(=O)NCc2ccco2)cc1
    ., ., i, 0.83, ., ., 98
COc1cc2nc(CN3CCN(S(=O)(=O)c4ccc(C)c(C)c4)CC3)[nH]c(=O)c2cc1OC
    5, ., i, 0.89, 23, 119, 99
C=CCn1c(SCc2nc3cc(C(F)(F)F)ccc3c(=O)[nH]2)nc2sc(CC)cc2c1=O
    -3, -1.0, i, 1, -10, 104, 98
CCNC(=O)/C=C1\NC(C)(C)Cc2c1ccc1ccccc21
    -2, 0.8, i, 0.88, 30, 159, 88
CNC(=S)N1CCN=C1Nc1nc(C)cc(C)n1
    11, ., i, 0.82, 38, 107, 100
CCOC(=O)c1oc2ccc(CNC(C)(C)C)c(Cl)c2c1C
    0, 0.5, i, 0.86, -431, 50, 146
CCOC(=O)c1oc2ccc(/C=N/O)c(Cl)c2c1C
    -6, ., i, 0.9, ., ., 101
Cc1nn(Cc2ccc(Cl)cc2)c(C)c1NC(=O)CSc1nc2c(c(C(F)(F)F)n1)CCc1ccccc1-2
    -11, -1.4, i, 0.78, 35, 62, 96
N/C(Cc1cccc2ccccc12)=N\O
    ., ., i, 1.1, ., ., 97
CCOC(=O)c1sc(C)c2c(=O)n(CC)nnc12
    1, 0.7, i, 0.95, -5, 147, 103
CC(C)Cc1nnc(NC(=O)c2cc3c(s2)CCC3)s1
    ., ., i, 0.98, ., ., 100
CC(=C\C(=O)O)/C(=C/c1ccco1)C(=O)O
    ., ., i, 0.97, ., ., 96
Cc1ccc(S(=O)(=O)Nc2cc(-c3nn(C)c(=O)c4ccccc34)ccc2N2CCOCC2)cc1
    -13, -1.5, i, 0.75, -4, 122, 100
Cn1c(CNC(=O)c2ccc(F)cc2)nc2ccccc21
    -6, -1.6, i, 0.84, 0, 150, 165
COCc1nnc(NC(=O)CSc2ccc(C)cc2)s1
    -1, -3.2, i, 1, -82, 99, 94
O=S(=O)(Nc1c(S(=O)(=O)c2ccccc2)c2nc3ccccc3nc2n1C1CCCCC1)c1ccccc1
    6, -2.6, ., ., ., ., 98
CCOc1cc(/C=N/NC(=O)Cn2nc([N+](=O)[O-])cc2C)cc(Br)c1OCc1ccccc1C
    -6, -3.1, i, 0.84, -16, 116, 104
CCOC(=O)c1sc(NC(C)=O)nc1C
    -5, -1.4, i, 0.73, 42, 84, 105
CCOC(=O)Cc1csc(NC(=S)NC(=O)c2cccc([N+](=O)[O-])c2)n1
    5, -0.6, i, 0.92, -147, 120, 99
N#Cc1c2n(c(=S)n(-c3ccccc3[N+](=O)[O-])c1=O)CCCCC2
    4, ., i, 0.94, ., ., 92
COc1ccc(CNC(=O)Cn2nnc(-c3ccc(NC(=O)C4CCCCC4)cc3)n2)cc1
    -5, 1.4, i, 0.95, -4, 104, 104
CCOc1ccc(N2C(=O)Nc3ccccc3C2(O)C(=O)NCc2ccc(C)cc2)cc1 (stereo unspecified)
    5, ., i, 0.93, 27, 119, 102
COc1cccc(C(=O)NNC(=O)CCC(=O)O)c1
    ., ., i, 0.93, ., ., 101
Cc1ccc(O)c(C(=O)c2cnc3c(c2)c(C)nn3-c2ccccc2)c1
    -9, -1.5, i, 0.84, -23, 110, 102
COc1cc([N+](=O)[O-])ccc1NC(=S)NCc1ccccn1
    8, 0.1, i, 1.1, ., ., 96
S=C(NCc1ccccc1)NCc1ccccc1
    -14, -2.4, i, 1, 48, 94, 103
CCC(=O)Nc1cccc(C(=O)/C=C/c2ccccc2)c1
    2, 0.4, i, 0.73, ., ., 94
CCc1ccccc1NC(=O)CN(C)C(=O)Cn1cc(C(F)(F)F)cc(Cl)c1=O
    -3, ., i, 1, ., ., 104
CCN(CC)S(=O)(=O)c1ccc(NC(=O)c2ccc(Sc3nncn3C)c([N+](=O)[O-])c2)cc1
    2, -1.0, i, 0.75, ., ., 96
Cc1ccnc(N2CCC(C(=O)NNC(=O)c3ccccc3)CC2)n1
    4, -2.4, i, 0.92, 6, 100, 104
O=C(COC(=O)/C=C/c1ccc2c(c1)OCO2)Nc1ccccc1
    2, ., i, 0.86, ., ., 100
COC(=O)CC1COc2ccccc2N1C(=O)c1ccc(OC)cc1 (stereo unspecified)
    -9, -3.1, i, 1.1, -36, 87, 115
O=C(N/N=C/c1ccncc1)C1C2CCCCCCC21 (stereo unspecified)
    -10, -2.1, i, 1, 57, 116, 59
N#Cc1c(-c2ccccc2)nc(SCC(=O)N2c3ccccc3Sc3ccccc32)[nH]c1=O
    ., ., i, 0.91, ., ., 110
COc1ccc2c(c1)[nH]c1c(=O)n(/N=C/c3ccc(OC)c(CN4CCCC4)c3)cnc12
    ., ., i, 0.94, ., ., 102
O=C1CC(c2ccccc2)NC(=O)N1 (stereo unspecified)
    -6, -0.9, i, 0.89, ., ., i
CC12C=CC(=O)C=C1CCC1C3CCC(O)(C(=O)CO)C3(C)CC3OC312 (stereo unspecified)
    3, ., i, 1, ., ., 98
O=C(CN1CCCCCC1)Nc1ccc(Br)cc1
    -7, -0.1, i, 0.86, 17, 64, 98
O=C(C1=C[C@@H](C2CC2)C[C@@H](OCCCCO)O1)N1CCOCC1
    -3, ., i, 0.95, ., ., 101
O=C(N/N=C(/c1ccccc1)c1ccncc1)c1ccc2c(c1)OCO2
    -2, -1.4, i, 0.81, -17, 125, 100
CC1CCN(c2ccc(C(=O)NCCc3ccccc3)cn2)CC1
    -11, -1.2, i, 0.99, 38, 85, 101
O=C(NCCn1cc(SCC(=O)N2CCOCC2)c2ccccc21)c1c(F)cccc1F
    -10, ., i, 0.95, -12, 79, 105

(listing goes on)
Order of results – PKD1 kinase inh, GALR2 ag, HSV augment, HSV augment primary fold, INS promoter inh, INS promoter inh cell count, RGS16-Gao
CCOc1ccc(C(=O)N2CCN(c3cccc(C)c3C)CC2)cc1
    -1, -0.1, i, 0.82, ., ., 94
CS(=O)(=O)N(CC(=O)NCC1CCCO1)c1cccc(Cl)c1 (stereo unspecified)
    5, ., i, 0.9, ., ., 97
Nc1ncn(C23CC4CC(CC(C4)C2)C3)n1
    -10, -1.2, i, 0.95, ., ., 104
CC1(C)Cc2c(C#N)c(NCCO)nc(-c3ccco3)c2CO1
    ., ., i, 1.1, ., ., 104
Nc1nc(NCc2ccccc2)nc(-c2ccccc2)n1
    -7, -2.3, i, 1, -23, 125, 106
O=C(NC1CCCCC1)c1ccc2c(=O)n(CC3CCCO3)c(=O)[nH]c2c1 (stereo unspecified)
    -3, -1.5, i, 0.99, ., ., 103
O=C(Nc1ncc(Cc2ccccc2)s1)C1=NCCN1
    -3, ., i, 0.98, -105, 142, 97
Cc1c(C(=O)N2CCOCC2)oc2c1C(=O)CC(C)(C)C2
    -5, -1.0, i, 1.1, 6, 125, 103
CCOc1cc(/C=N/NC(=O)CNc2cccc(C)c2)ccc1OC(=O)c1ccccc1
    1, 0.6, i, 0.94, -6, 93, 98
CCOc1ccccc1Nc1cc(C)nc2nc(C)nn12
    -1, -1.0, i, 1.2, ., ., 97
O=C(CCN1C(=O)C2C3C=CC(C4CC34)C2C1=O)Oc1cccc2cccnc12 (stereo unspecified)
    10, -4.1, i, 0.72, ., ., 104
CCN(CC)C(=O)Cn1cc(S(=O)(=O)CC(=O)Nc2ccc3c(c2)OCCO3)c2ccccc21
    -8, ., i, 0.9, -33, 112, 99
Cc1ccc(-c2nnc3ccc(SCC(=O)NCc4ccco4)nn23)cc1
    -2, -0.1, i, 0.88, -7, 85, 102
COc1ccc(CN2CCN(c3ccccn3)CC2)c(OC)c1
    -3, -0.3, i, 0.87, -11, 108, 85
CN(C)C(CNC(=O)NC1CCCCC1)c1cccnc1 (stereo unspecified)
    10, -2.5, i, 1, -50, 144, 100
COc1ccccc1C(=O)N/C(=C\c1ccccc1)C(=O)NC(C)C(=O)O (stereo unspecified)
    2, ., i, 1.1, ., ., 106
COc1ccc2c(c1OC)C(=O)OC2Nc1ccccc1S(=O)(=O)C(F)F (stereo unspecified)
    1, -1.2, i, 0.83, 4, 100, 104
O=C(CCC1CCCN(C(=O)CCC(F)(F)F)C1)NCc1ccc(F)c(F)c1 (stereo unspecified)
    3, ., i, 1.1, 6, 98, 52
Cc1cccc(NC(=O)C2(c3ccccc3)CCOCC2)c1
    -7, ., i, 1.1, ., ., 100
CCOC(=O)C1(Cc2cccc(Cl)c2)CCCN(CCO)C1 (stereo unspecified)
    -10, ., i, 0.96, -185, 181, 111
C=CCSc1nnc(Cn2c(=O)sc3ccccc32)n1C
    -5, -0.6, i, 1, ., ., 109
Cc1cc(C)c([N+](=O)[O-])cc1-c1ccc(/C=N/NC(=O)c2nonc2N)o1
    -2, 1.5, i, 1, -3, 72, 98
Cc1nc2nc(-c3cccnc3)[nH]n2c(=O)c1Cc1ccccc1
    -10, -0.5, i, 0.95, 36, 146, 102
O=C(NCc1ccccc1)c1csc2c1CCCCC2
    -5, -0.7, i, 1.2, -41, 68, 94
CC(OC(=O)c1ccc(Cl)nc1)C(=O)NC(C)(C)C (stereo unspecified)
    -2, ., i, 0.97, 53, 95, 100
